Screens from PubChem BioAssay.
RecA intein inh = Mtb RecA intein splicing inhibitors, primary screen, biochemical, fluorescence, HTS; Protein RecA (Mycobacterium tuberculosis (strain ATCC 25618 / H37Rv)), P9WHJ3; cell-free RecA intein splicing; inhibition, %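 (about 9 µM by stock and volumes)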; actives 0.75% (n = 290,000); AID 2221, 2009; in the data active = inhibition above about 30%;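 note: 0% = vehicle wells and 100% = reference inhibitor control wells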
Target sequence (P9WHJ3 whole entry, looked up): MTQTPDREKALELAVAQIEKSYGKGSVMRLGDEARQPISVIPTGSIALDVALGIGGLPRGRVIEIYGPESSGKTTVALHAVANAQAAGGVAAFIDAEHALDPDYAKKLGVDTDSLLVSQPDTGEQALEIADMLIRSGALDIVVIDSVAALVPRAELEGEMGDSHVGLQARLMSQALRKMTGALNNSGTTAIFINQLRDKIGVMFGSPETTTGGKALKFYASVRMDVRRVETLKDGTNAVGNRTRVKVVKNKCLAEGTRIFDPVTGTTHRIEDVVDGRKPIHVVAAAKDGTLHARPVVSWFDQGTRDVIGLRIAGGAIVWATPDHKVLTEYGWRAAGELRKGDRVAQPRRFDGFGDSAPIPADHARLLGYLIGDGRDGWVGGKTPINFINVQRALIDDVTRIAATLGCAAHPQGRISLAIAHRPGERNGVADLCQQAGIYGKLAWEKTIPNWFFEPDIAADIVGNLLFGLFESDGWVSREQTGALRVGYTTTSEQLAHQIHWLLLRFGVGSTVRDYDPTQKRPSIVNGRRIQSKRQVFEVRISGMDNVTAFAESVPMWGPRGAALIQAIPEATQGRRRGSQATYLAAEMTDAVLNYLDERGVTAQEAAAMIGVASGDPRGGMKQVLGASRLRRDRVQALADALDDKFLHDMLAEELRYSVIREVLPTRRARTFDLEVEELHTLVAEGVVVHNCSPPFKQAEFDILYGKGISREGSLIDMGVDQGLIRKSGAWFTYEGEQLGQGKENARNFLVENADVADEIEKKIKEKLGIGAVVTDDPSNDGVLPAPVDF
Arbovirus anti = antivirals against arbovirus infection, primary screen, cell-based, full library, 10K replicate subset; inhibition, % at 10 µM; arbovirus infection cell-based antiviral screen; actives 0.37% (n = 200,000); AID 1251, 2008;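 active = inhibition from about 30%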;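 note: bluetongue infection of BSR cells; cell survival read as ATP light after 72 h; 0% = infected wells without compound and 100% = uninfected wells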
Mtb growth = M. tuberculosis H37Rv growth inhibitors, H37Rv strain (AID 1626); actives 0.95% (n = 220,000); M. tuberculosis H37Rv growth inhibition; higher % means a stronger effect; inhibition, % at 10 µM, or IC50 in µM where a hit was titrated;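 active = confirmed in a dose series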;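 note: bacteria incubated seven days before Alamar blue readout; 0% = bacteria only wells and 100% = bacteria with antibiotic wells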
YopH inh = YopH tyrosine phosphatase inhibitors, primary screen, biochemical, fluorescence Ex485/Em525; actives 0.16% (n = 140,000); inhibition, %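 (about 10 µM by stock and volumes)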; AID 898, 2007;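 active = inhibition of 50% or more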;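 note: controls were vehicle for no effect and minimum signal wells for full effect; inactives centre near -20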
Mtb betalactam = beta-lactam sensitization of Mtb H37Rv, H37Rv; AID 434955, 2010; M. tuberculosis H37Rv growth with meropenem, percent inhibition; hits of this screen are not shown here; inhibition, % at 25 µM; actives 0.27% (n = 330,000);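 active = about 74% or more and at least 40 points above the plate without the antibiotic, then above 30% in a dose series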;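 note: growth measured after seven days incubation then overnight dye step; 0% = bacteria only wells and 100% = bacteria with antibiotic; twin plates without the antibiotic show which effects depend on it; some results filed as inactive read as strong as hits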
Arbovirus anti repeat = also measured in Arbovirus anti; calls as there; inhibition, %; measured here: 10K subset replicate screen; many hits read low in the repeat;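 first of two repeat runs on a subset; 0% = infected and 100% = uninfected wells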
Starred values were filed as active, the others as inactive; . = not tested or not shown. This is a subset (hit frequency here may not be typical).

SMILES	RecA intein inh	Arbovirus anti	Mtb growth	YopH inh	Mtb betalactam	others
O=C(Cc1cccs1)N1CCCC(c2nc3c(nnn3Cc3ccccc3Cl)c(=O)[nH]2)C1 (centres undefined)	3.0	-21.6	2.6%	-38.4	-6.0
CNC(=O)COc1ccc(-c2nn(C)c(=O)c3ccccc23)cc1	-1.0	-1.0	-1.8%	-26.9	-0.1
COc1cc(OC)cc(C(=O)NNC(=O)CCC(=O)c2cccs2)c1	-0.2	.	.	.	-0.7
CCN(CC)CCCn1c(SCC(=O)Nc2cccc(F)c2)nnc1-c1ccoc1C	-1.0	.	.	.	3.5
O=C(O)c1ccc(N2C(=O)CC(N3CCN(c4ccc(Cl)cc4)CC3)C2=O)cc1 (centres undefined)	-2.3	.	.	.	-5.3
COc1cccc(CN(C)C(=O)c2ccc(Oc3ccccc3)cc2)c1OC	15.1	.	.	.	-2.9
CCCCCn1c(CN2CCN(C)CC2)nc2c1c(=O)n(C)c(=O)n2C	-0.9	0.7	.	-12.3	-5.9
COc1cc([N+](=O)[O-])ccc1NC(=O)CCCOc1cc(C)ccc1C	-5.8	-7.5	1.2%	-20.5	4.4
Cc1cc(/C=C2/C(=O)NC(=O)N(c3ccccc3)C2=O)c(C)n1-c1ccc(F)cc1	-3.5	.	1.4%	-8.9	16.9
CCCCc1cc(=O)oc2cc(C)cc(OC(C)C(=O)NCc3ccncc3)c12 (centres undefined)	9.1	.	.	.	-5.5
O=C(Cn1c(=O)oc2ccccc21)Nc1ccc(Cl)cc1Cl	3.4	.	.	.	-4.6
O=C(Nc1ccc2c(c1)OCO2)c1ccc(N2CCCC2)c([N+](=O)[O-])c1	9.8	-30.2	1.5%	-0.5	0.6
N#C/C(=C\C1=C(N2CCOCC2)C(=C\c2ccccc2)/CC1)C(=O)Nc1ccccc1F	3.2	1.1	14.1%	2.9	.
O=C(Nc1nc2cc3c(cc2s1)OCO3)C1=COCCO1	9.3	-13.9	-1.9%	9.9	0.5	Arbovirus anti repeat=-11.4
COC(=O)c1ccccc1NC(=O)N1CCN(c2ccccc2)CC1	3.8	0.8	-1.0%	.	-5.0
CC(=O)c1cccc(N=C2C(=O)Nc3ccccc32)c1	1.4	-7.5	-7.7%	-46.1	-1.8
Cn1c(C(=O)N2CCCC(C(=O)NCCCc3ccccc3)C2)cc2sccc21 (centres undefined)	6.2	3.8	10.1%	-4.0	-0.6
O=C(CO/N=C/c1ccc2c(c1)OCO2)Nc1cccc(Br)c1	9.8	-0.7	6.1%	-23.1	8.0
CC(C)(Oc1ccc(Cl)cc1)C(=O)Nc1ncccn1	-0.7	8.1	-8.9%	-28.9	5.6	Arbovirus anti repeat=-0.8
CC12CN3C(O)C(C)(C1)CC(C)(C2)C3O (centres undefined)	-1.8	24.6	-7.0%	-34.3	6.7
O=C(COc1ccc(Br)cc1)NCc1cn2ccccc2n1	0.3	.	-2.7%	.	-5.7
Cc1nc(C(=O)NCCCO)cc2c1[nH]c1ccccc12	8.9	.	.	.	9.9
Cc1cccc(/C=N\N=C\c2cccc(C)c2)c1	-7.1	.	.	.	7.4
CC(C)C(c1nnnn1CCc1ccccc1)N1CCC(C(N)=O)CC1 (centres undefined)	3.8	7.5	-8.6%	.	-5.1
O=C(Nc1ccc(N2CCOCC2)nc1)c1ccc(F)cc1	-0.6	-6.8	-4.1%	-23.5	-0.4
O=[N+]([O-])c1ccc(COc2ccc(Br)cc2CN2CCOCC2)cc1	3.8	-5.2	4.5%	.	-1.0
CCC(=O)Nc1nc2cc(OC)ccc2s1	-2.0	-7.1	4.6%	-47.1	-0.5
CN1C2=NCCN2C(=O)c2cc(Cl)ccc21	0.6	.	-7.3%	.	-9.8
Cc1c(CN2CCCCC2)c(O)n(CCO)c(=O)c1C#N	1.8	1.0	-8.8%	.	1.8
CC(=O)NC(CCS(C)(=O)=O)C(=O)Nc1cccc(C)c1C (centres undefined)	1.1	3.9	-0.9%	-28.4	5.2	Arbovirus anti repeat=2.5
O=C(Cn1cnc2cc([N+](=O)[O-])ccc2c1=O)NC1CCS(=O)(=O)C1 (centres undefined)	-3.7	3.4	1.8%	.	2.1
O=C(Nc1ccccc1)c1ccc2snnc2c1	-1.6	5.6	-1.8%	.	-1.7
O=C(NCc1ccccc1)N1CCNCC1	-1.4	.	.	.	-1.5
CC(=O)c1c(C)[nH]c(C(=O)COc2ccc3ccc(=O)oc3c2)c1C	0.4	.	.	.	-14.2
C(=N\n1cnnc1)/c1ccc2ncccc2c1	-1.8	4.1	-2.1%	-14.8	-9.4
CCCOc1ccc(-c2nc(C#N)c(NCCCn3ccnc3)o2)cc1	4.5	-21.2	15µM*	-3.3	99.0
C=CCNC(=O)CN1C(=O)C2C3c4ccccc4C(c4ccccc43)C2C1=O (centres undefined)	-0.9	2.1	0.9%	.	5.1
O=C(CCNC(=O)c1ccccc1Cl)NCCc1ccc(Cl)cc1	-0.1	.	.	.	-4.8
O=C(CN1CCN(Cc2ccccc2)CC1)Nc1ccccc1	0.3	.	.	.	0.3
Cc1ccccc1OCC(=O)Nc1sc2c(c1C#N)CC(C)(C)NC2(C)C	-4.0	.	.	.	9.8

Taken from the listing (4 entries):
SMILES	RecA intein inh	Arbovirus anti	Mtb growth	YopH inh	Mtb betalactam	others
Cc1cccc(/C=N\N=C\c2cccc(C)c2)c1	-7.1	.	.	.	7.4
CC(C)C(c1nnnn1CCc1ccccc1)N1CCC(C(N)=O)CC1 (centres undefined)	3.8	7.5	-8.6%	.	-5.1
O=C(Nc1ccc(N2CCOCC2)nc1)c1ccc(F)cc1	-0.6	-6.8	-4.1%	-23.5	-0.4
O=[N+]([O-])c1ccc(COc2ccc(Br)cc2CN2CCOCC2)cc1	3.8	-5.2	4.5%	.	-1.0

Further structures:
SMILES	RecA intein inh	Arbovirus anti	Mtb growth	YopH inh	Mtb betalactam	others
CCCCNC(=O)c1onc(CSc2cccc(Cl)c2)c1C(=O)O	3.8	-44.4	-8.0%	-79.0	22.7
O=S(Cc1ccccc1)CC(O)(c1ccccc1)c1ccccc1 (centres undefined)	-0.5	0.0	-2.4%	6.9	3.5
O=C(Nc1ccc2c(c1)OCO2)c1c(Cl)nc2sccn12	.	-12.8	1.0%	-21.5	0.1
CCn1ncc(CN2CCCC(C(=O)c3cccc(OC(C)C)c3)C2)c1C (centres undefined)	4.2	-3.5	3.4%	.	-2.9
OCCCNc1nc(-c2ccccc2)nc2c1oc1ccccc12	-2.8	.	7.0%	.	5.3
CCOc1cc(/C=N\Nc2nc(Nc3ccccc3)nc(N3CCOCC3)n2)ccc1OC(=O)c1ccco1	2.9	19.6	53.1%	-7.4	94.0
COc1ccc(NC(=O)c2cc(S(=O)(=O)N3CCc4ccccc43)cn2C)cc1OC	0.6	.	.	.	-2.1
C/C(CC(C)C)=N/Nc1ccc([N+](=O)[O-])cc1[N+](=O)[O-]	4.6	.	8.9%	.	1.1
Cc1ccc(Cl)cc1NC1=C/C(=N\S(=O)(=O)c2cccs2)c2ccccc2C1=O	-0.7	-33.8	1.91µM*	9.0	99.7
COc1ccccc1N1CCN(C(=O)C2CCN(S(=O)(=O)c3ccc4c(c3)CC(C)N4C(=O)C3CC3)CC2)CC1 (centres undefined)	1.5	.	.	.	12.9
CN(Cc1ccccc1)C(=O)C1CCCN(c2ncnc3c2nc2n3CCCCC2)C1 (centres undefined)	-4.0	.	.	.	-5.7
COc1ccccc1C(=O)Nc1ccc(C(=O)O)cc1	-2.3	0.2	-8.5%	-32.5	-0.8
CC(C)(C)c1csc(NC(=O)Cc2cccs2)n1	8.6	-6.7	-9.5%	.	-4.5
COc1ccc(CCNC(=O)CCn2c(=O)oc3ccccc32)cc1OC	-1.7	5.0	-1.8%	0.1	-7.2	Arbovirus anti repeat=-1.1
CC(=O)c1ccc(NC(=O)CS(=O)(=O)c2cn(CC(=O)N3CCOCC3)c3ccccc23)cc1	-1.2	.	.	.	-3.5
C=CCn1c(C(c2ccccc2)c2ccccc2)n[nH]c1=S	0.8	0.5	-10.1%	-26.9	-3.4
Cc1cccc(C)c1NC(=O)CS(=O)CC(=O)NC1CCCc2ccccc21 (centres undefined)	.	-4.4	-7.8%	-31.1	-10.9
COc1ccccc1C(=O)NC(=O)CSc1nc(C)cs1	2.5	.	.	.	-9.0
CCn1c(C)cc(/C=C2/SC(=S)N(CC(=O)O)C2=O)c1C	-11.3	1.8	1.1%	.	-7.5
Cc1cnc(C(=O)Nc2cccc3cccnc23)cn1	-1.2	-14.2	.	-42.3	.

6 compounds picked at random from those above:
SMILES	RecA intein inh	Arbovirus anti	Mtb growth	YopH inh	Mtb betalactam	others
COc1ccc(NC(=O)c2cc(S(=O)(=O)N3CCc4ccccc43)cn2C)cc1OC	0.6	.	.	.	-2.1
Cc1cccc(/C=N\N=C\c2cccc(C)c2)c1	-7.1	.	.	.	7.4
O=S(Cc1ccccc1)CC(O)(c1ccccc1)c1ccccc1 (centres undefined)	-0.5	0.0	-2.4%	6.9	3.5
O=C(CO/N=C/c1ccc2c(c1)OCO2)Nc1cccc(Br)c1	9.8	-0.7	6.1%	-23.1	8.0
CC(=O)NC(CCS(C)(=O)=O)C(=O)Nc1cccc(C)c1C (centres undefined)	1.1	3.9	-0.9%	-28.4	5.2	Arbovirus anti repeat=2.5
COc1ccccc1N1CCN(C(=O)C2CCN(S(=O)(=O)c3ccc4c(c3)CC(C)N4C(=O)C3CC3)CC2)CC1 (centres undefined)	1.5	.	.	.	12.9

The listing continues.
SMILES	RecA intein inh	Arbovirus anti	Mtb growth	YopH inh	Mtb betalactam	others
O=C(NC(=S)Nc1ccc2ncccc2c1)c1ccccc1	1.9	-7.6	0.7%	.	-5.8
O=[N+]([O-])c1ccc(N2CCCCCC2)c2ncccc12	9.7	3.2	12.9%	.	4.3
O=C(NC1=NCCS1)NC12CC3CC(CC(C3)C1)C2	-1.9	3.5	-5.1%	-11.7	6.4
O=C(N/N=C/c1cccnc1)c1cccc(N2CCCC2=O)c1	-8.3	.	0.0%	.	-13.7
CCOC(=O)[C@@H]1[C@H]2COc3ccccc3[C@H]2N2C(=O)N(c3ccc(C(F)(F)F)cc3)C(=O)[C@]12C	3.3	.	.	.	91.8
COC(=O)CN1C(C)=Nc2ccc(C)cc2C1c1ccccc1 (centres undefined)	-3.9	-1.7	4.9%	.	9.1
O=C(Nc1nnc(C2=COCCO2)o1)c1ccc(S(=O)(=O)N2CCCCC2)cc1	1.4	0.4	78.6%	.	89.4
Cc1cccc(C(=O)NC(C)C(c2cccs2)N2CCOCC2)c1 (centres undefined)	-3.8	.	-5.4%	.	-1.1
Cc1cc(C)cc(CC2CC(=O)N(c3cc(C)ccc3C)C2=O)c1 (centres undefined)	-0.3	.	.	.	-1.3
CCOc1ccc(C(=O)NCC(C)CN(C)C)cc1OCC (centres undefined)	-4.1	5.6	2.6%	-23.6	-4.9
O=C(O)c1cc(N2N=C(C(F)(F)F)/C(=C/C=C/c3ccco3)C2=O)ccc1Cl	.	15.7	-3.8%	.	.
O=C(NCc1ccco1)c1ccc(F)c(S(=O)(=O)N2CCCCC2)c1	.	4.4	3.9%	.	8.2
Cc1cc(=O)[nH]c(SCC(=O)Nc2ccccc2[N+](=O)[O-])n1	-0.7	.	-18.4%	.	-6.2
CCOC(=O)c1sc2nc(-c3ccccc3)ccc2c1N	-4.7	-0.7	2.4%	-19.9	2.1
O=S(=O)(c1ccc(Sc2nnc3ccccn23)nc1)N1CCOCC1	-1.2	12.6	-11.7%	-40.7	0.1
CCC1(c2ccccc2)NC(=O)N(CC(=O)Nc2cc(S(=O)(=O)N3CCCCC3)ccc2N(C)C)C1=O (centres undefined)	6.4	.	.	.	-6.8
O=C(CSc1nc2[nH]ncc2c(=O)n1-c1ccccc1)N1CCCc2ccccc21	1.4	14.7	-4.4%	-42.7	7.6
CCCC1=C(C(=O)OCC)C(c2ccncc2)n2ncnc2N1 (centres undefined)	0.6	15.4	-4.0%	2.3	-0.2
O=C(NNC(=S)Nc1ccc(OC(F)F)cc1)c1cc2c(s1)CCCC2	3.0	-0.7	4.1%	-13.8	0.8
C(#Cc1ccccc1)C[N+]1(CC#Cc2cccc3ccccc23)CCCC1	.	-4.1	25.1%	8.6	51.9
O=C(Nc1cccc(Cl)c1)Nc1ccccc1-n1ccnc1	-1.4	2.5	89.2%	.	15.9
Cc1ccc(/C=C/C(=O)Nc2cc(C)on2)cc1	2.2	-6.3	-8.1%	-38.0	4.4
CCOc1ccccc1C(=O)NCCCCCC(=O)O	2.2	1.7	3.0%	-34.6	-15.7
CC(NC(=O)Cn1cc2c(n1)CCCCC2)c1ccccc1 (centres undefined)	1.2	-0.1	-7.0%	-18.5	-9.8	Arbovirus anti repeat=3.6
O=C(N/N=C/c1cc(Br)ccc1O)C(c1ccncc1)N1CCOCC1 (centres undefined)	1.6	-9.4	0.2%	-37.8	6.4
O=C(O)c1c(-c2ccccc2)c2oc3ccccc3c2[nH]c1=O	-1.9	8.9	-3.1%	-37.8	11.8
